High-throughput results deposited in PubChem by several laboratories.
ALR H2O2 inh = blocks human ALR sulfhydryl oxidase activity | P55789 | purified ALR, DTT oxidation, H2O2 HRP-luminol luminescence | inhibition, % (no concentration beside the values) | 3.8% of 290,000 active;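 active = mean and each replicate at 75% or more; inconclusive = only one of the two met; inactive = neither met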;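 note: stock transfer was 7.5 nL into about 7.5 µL; 0% = neutral wells and 100% = wells with inactivated enzyme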
Calb FLC = C. albicans growth modulation with fluconazole | AID 1979 | growth inhibition, % (test concentration not listed) | 0.57% of 300,000 active | C. albicans CaCi-2 (fluconazole-resistant clinical isolate) + fluconazole, Alamar Blue growth, 48 h;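 active = most replicates above 75%; inconclusive = exactly half above 75%; inactive = most below 75%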;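 note: all wells also contain fluconazole at 8 µg/ml as a sub-toxic cotreatment; 0% = median of DMSO wells and 100% = median of geldanamycin control wells; wells of about 8 µL received 7.5 nL stock; the first replicate is given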
LANA-H2B inh = blocks KSHV LANA binding to histone H2A/H2B; Q9QR71; cell-free LANA-H2A/H2B peptide, fluorescence polarization; inhibition, % (test concentration not listed); 0.6% of 320,000 active; in the data active = inhibition mostly above about 10%, no sharp cut-off; inactive = mostly below about 6.7%;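 note: stock transfer was 7.5 nL into about 10 µL; 0% = median of vehicle wells and 100% = median of positive control wells; one replicate is shown; the record names a cut of 25% in any replicate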
Vif A3G = inhibitors of Vif binding to APOBEC3G peptide, primary screen, biochemical, TR-FRET, GST-Vif 1-94, biotin-A3G peptide, dose response retest (AID 1117319) | TR-FRET GST-Vif / biotin-A3G peptide binding; higher % means a stronger effect; test concentration not given here; strong numbers were not always called active | inhibition, %, or IC50 in µM where a hit was titrated | 0.57% of 260,000 active;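 active = above the screen mean plus three standard deviations and confirmed in dose response; inconclusive = results disagree or hit not tested in dose response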;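 note: Vif residues 1-94 fused to GST binding biotinylated APOBEC3G peptide 110-148; 0% = full assay without inhibitor and 100% = GST in place of GST-Vif; retest series ran down from 100 µM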
B2AR ag = agonists of human beta-2 adrenergic receptor inducing internalization; P07550; Am2.2-beta2AR cells, FAP receptor internalization, flow cytometry; reference of the scale not given here; response, % (test concentration not listed); 0.43% of 340,000 active;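 active = response above a set limit, near 3 SD of response in nonfluorescent compounds, cut at about 42% in these data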;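 note: stock transfer was 100 nL into about 11 µL; a reference agonist was the positive control; negative values mostly stem from fluorescent compounds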
Target sequence (P07550 whole entry, looked up): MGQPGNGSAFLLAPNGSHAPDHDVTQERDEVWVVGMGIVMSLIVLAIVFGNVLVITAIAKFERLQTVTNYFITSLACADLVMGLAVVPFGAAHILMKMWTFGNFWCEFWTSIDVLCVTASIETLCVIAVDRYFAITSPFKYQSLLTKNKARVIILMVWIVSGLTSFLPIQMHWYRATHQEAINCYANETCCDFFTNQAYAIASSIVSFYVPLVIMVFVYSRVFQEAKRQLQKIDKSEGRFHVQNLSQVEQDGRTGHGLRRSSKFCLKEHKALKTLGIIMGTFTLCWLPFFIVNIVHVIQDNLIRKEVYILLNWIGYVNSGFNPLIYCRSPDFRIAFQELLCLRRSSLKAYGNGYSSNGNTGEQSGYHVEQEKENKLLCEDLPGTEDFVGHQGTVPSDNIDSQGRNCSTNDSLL
HNF4A DNA FP = change in binding of human HNF4 alpha to DNA. P41235. HNF4a-FITC DNA binding, fluorescence polarization, 1 h. activity change, % at 10 µM. 0.3% of 360,000 active. AID 1224865; in the data active = activity change above about 30%, passing the limit was not always enough;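 note: controls were the assay level and a saturating level of protein; the project sought stronger binding though the title names inhibitors; some compounds called inactive have numbers as strong as hits; positive values seem to mean higher polarization but the record does not say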
Target sequence (P41235 whole entry, looked up): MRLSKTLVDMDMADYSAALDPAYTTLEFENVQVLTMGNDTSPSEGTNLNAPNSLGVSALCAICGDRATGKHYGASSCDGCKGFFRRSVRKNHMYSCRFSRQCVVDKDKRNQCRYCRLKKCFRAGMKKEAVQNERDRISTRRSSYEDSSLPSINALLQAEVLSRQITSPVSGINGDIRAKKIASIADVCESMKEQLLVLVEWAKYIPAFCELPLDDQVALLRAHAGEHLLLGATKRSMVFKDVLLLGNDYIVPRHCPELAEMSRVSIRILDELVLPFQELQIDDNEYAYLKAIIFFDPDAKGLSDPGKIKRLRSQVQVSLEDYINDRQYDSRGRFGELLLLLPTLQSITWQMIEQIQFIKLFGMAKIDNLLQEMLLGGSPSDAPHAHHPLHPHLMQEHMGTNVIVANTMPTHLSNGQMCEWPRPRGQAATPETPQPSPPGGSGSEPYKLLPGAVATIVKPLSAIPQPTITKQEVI
RanGTP-Impb inh = inhibitors of RanGTP-importin-beta interaction, primary screen, biochemical, FRET, CFP-Ran, YFP-importin-beta, homogeneous. inhibition, % (concentration not given with the values). cell-free CFP-Ran/YFP-importin-beta FRET ratio. AID 2216. 1.1% of 300,000 active;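 active = most replicates above 15%; inconclusive = exactly half above 15%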;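 note: 0% = DMSO wells and 100% = Ran loaded with GDP instead of GTP; wells of about 40 µL received 100 nL stock; the first replicate is given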
Numbers without * were called inactive; ? = inconclusive; . = not tested or not shown; & = joins results of further samples. Rows were taken by chance. About 6.3% of those tested had a hit in this group.

Each structure is followed by: ALR H2O2 inh	Calb FLC	LANA-H2B inh	Vif A3G	B2AR ag	HNF4A DNA FP	RanGTP-Impb inh
N#CCCn1cc(C(=O)Nc2ccc(C(=O)O)cc2)c(-c2cccc(Br)c2)n1
  3	-3	0.8	.	-1	-2.0	2.2
NC(=O)CC(NC(=O)c1ccccc1)c1ccc(N2CCCCCCC2)c([N+](=O)[O-])c1 (centres undefined)
  -4	3	3.1	.	-15	5.4	-0.5
COc1ccc2c(c1)c(CC(=O)Nc1ccc(C)cc1)c(C)n2C(=O)c1ccc(Cl)cc1
  .	10	-6.2	-1%	5	-1.1	7.9
CC1=C(C(=O)N2CCOCC2)C(c2cccs2)NC(=O)N1 (centres undefined)
  -4	0	6.9	?	-4	-1.5	-0.9
CCCSc1ccc([C@@H]2[C@H]3C(=O)N(C)C(=O)[C@H]3[C@]3(C(=O)OC)CCCN23)cc1OC
  -1	.	-3.4	.	0	-3.1	.
CCOCCN(C=O)c1cccc(OC)c1
  -6	-4	-2.4	2%	3	1.0	-3.8
Cc1ccc(N(CC(=O)NC2CCCC2)C(=O)CCC(=O)Nc2nc(C)cs2)cc1
  9	0	-2.6	.	1	3.3	?
COc1ccc(S(=O)(=O)N(C)CC(=O)N2CCN(c3ccc(F)cc3)CC2)cc1OC
  65	-22	-0.7	3%	2	1.6	2.4
O=C(O)/C=C/S(=O)(=O)c1ccc2ccccc2c1
  .	0	-4.8	0%	-1	0.4	-1.8
CN(C)c1ccc(Sc2nnc(NC(=O)Nc3ccc(Cl)cc3Cl)s2)cc1
  5	3	-0.8	-6%	-4	0.8	-2.9
Cn1ccnc1SCC(=O)c1ccc(Cl)cc1
  51	10	1.6	21%	-8	-1.6	-1.2
C#CC[N+]1(CC#Cc2ccc(C)cc2)CCCCC1
  -26	?	2.8	-1%	1	-1.9	4.2
NC(=O)CSc1nc2scc(-c3ccco3)c2c(=O)n1-c1ccccc1
  0	7	2.3	29%	2	-14	1.4
COc1ccc(Br)cc1CNC(=O)CCC(=O)n1nc(C)c2ccccc21
  9	-2	-3.6	0%	3	-0.4	3.7
O=C(O)c1ccccc1C(=O)c1cccc2c(Br)cccc12
  .	.	.	-312%	3	-4.8	.
O=S(=O)(c1ccc(Br)s1)N1CCN(Cc2ccc3c(c2)OCO3)CC1
  -6	23	0.1	1%	-1	-4.3	5.4
CC(=O)NCCC(=O)Nc1cc(S(=O)(=O)N2CCOCC2)ccc1N1CCCC1
  -2	-6	-2.8	1%	6	-0.3	.
CN1CCc2c(sc3c2C(=O)NC(c2ccccn2)N3)C1 (centres undefined)
  -21	-19	-1.2	23%	1	-17	133*
CC1CC(C)CN(c2oc(-c3ccco3)nc2C#N)C1 (centres undefined)
  .	-1	.	?	-9	2.3	-2.6
Fc1ccccc1NC(=S)N1CCN(Cc2ccccc2)CC1
  -11	3	0.7	-9%	-2	-1.6	-0.5
O=C1N=C(N2CCN(c3ccccc3)CC2)S/C1=C\c1ccco1
  ?	-9	3.2	4.3µM*	2	-2.1	7.1
CN(CCCC(=O)O)S(=O)(=O)c1ccc2c(c1)C(=O)c1cc(S(=O)(=O)N(C)CCCC(=O)O)ccc1-2
  .	-8	1.6	.	-12	5.2	4.0
COC(=O)Oc1ccc(/C=N/NS(=O)(=O)c2ccccc2)cc1OC
  62	0	2.1	.	5	1.0	3.7
Cc1nn2c(-c3ccccc3)ccnc2c1-c1ccccc1
  -3	-49	0.1	5%	-2	2.5	0.7
O=C(Nc1nc2c(F)cc(F)cc2s1)C1CCN(C(=O)c2ccc(F)cc2)CC1
  -5	8	3.9	-9%	7	7.2	-0.1
COc1ccc(NC(=O)CSc2nccn2Cc2ccc(F)cc2)cc1
  24	2	-1.6	.	-9	-2.9	0.9
Cc1c(Cl)cccc1NC(=O)c1ccccc1-c1ccccc1C(=O)O
  10	2	-12	.	-2	-2.2	1.3
CC(C)(C)OC(=O)N1CCC[C@H]1C(=O)Nc1ccc(S(=O)(=O)C(F)F)cc1
  -34	7	-3.3	-4%	-3	1.8	3.4
COCCn1c(=O)[nH]c2cc(C(=O)Nc3cccc(F)c3)ccc2c1=O
  1	0	6.5	.	9	-1.6	-0.5
COc1ccc(N(CC(=O)NCc2ccccc2C)S(=O)(=O)c2ccccc2[N+](=O)[O-])c(OC)c1
  -2	14	1.7	-3%	25	-0.2	1.7
O=C(NCCc1ccc(Cl)cc1)c1ccc(Br)s1
  -14	0	-1.0	.	-8	-2.2	-0.3
COc1cccc2c1SCc1ccccc1C2CC(N)=O (centres undefined)
  0	-8	-2.9	.	-1	-0.6	-0.8
Cc1ccc(Cn2cccc2/C=C2/C(=N)N3C=CSC3=NC2=O)cc1
  1	7	0.2	-3%	11	6.9	-2.5
O=C(c1cccc(Br)c1)N1CCN(c2cnn(-c3ccccc3)c(=O)c2Cl)CC1
  -8	-6	-0.4	.	-4	-0.4	4.5
COCCCN(C(=S)Nc1cc(Cl)cc(Cl)c1)C(C)c1ccncc1 (centres undefined)
  -5	-6	-0.1	-9%	10	2.2	-1.1
COc1ccc(C2=NOC(C(=O)NCc3cccnc3)C2)cc1 (centres undefined)
  -32	-1	-3.6	.	-7	1.0	0.7
CCOc1ccc(OCC(=O)Nc2ccccc2C(F)(F)F)cc1
  -2	-5	5.0	3%	0	1.3	-4.6
O=C(/C=C/c1ccccc1)N1CCN(CCN2C(=O)c3cccc4cccc(c34)C2=O)CC1
  2	19	9.0	-4%	-2	-3.1	-4.4
CCNS(=O)(=O)c1ccc(S(=O)(=O)N(Cc2ccccn2)C2CCCCC2)cc1
  -3	-2	-1.0	-2%	2	3.2	3.0
Cc1ccc(C)c(NC(=S)N(CCc2ccncc2)C(C)C)c1
  -7	-9	2.2	-1%	-7	0.6	-0.3
CC1CCN(C(=O)COC(=O)Cn2cnc3c2c(=O)n(C)c(=O)n3C)CC1
  -26	-8	2.3	.	-2	2.0	2.9
FCCCOc1ccc(-c2ccnc3ncnn23)cc1
  12	-1	0.2	.	-27	-2.6	-3.9
COn1c(=O)c(=O)n(O)c2ccccc21
  -5	1	-4.4	17%	10	0.4	2.2
CC(C)c1cc(=O)[nH]c(SCC(=O)NC2CCCC2)n1
  -2	-2	0.2	.	-3	-2.5	5.0
COC(=O)C1CCN(C(=O)NC(C)(C)C)CC1
  -3	-4	1.4	68%	-5	-1.2	-3.2
CC(C)CCN(C(=O)c1ccncc1)c1c(N)n(Cc2ccccc2)c(=O)[nH]c1=O
  -2	.	-13	-6%	4	7.3	.
CSc1ncccc1C(=O)N(C)CC(=O)Nc1ccc(Cl)cc1
  -3	2	-1.5	0%	-2	0.6	-2.3
Cc1ccn2c(=O)nc(SCC(=O)c3ccccc3)nc2c1
  40	9	-2.6	-1%	-5	-9.4	5.2
CC(C)NC(=O)[C@H](CSCc1ccccc1)N1Cc2ccccc2C1=O
  -20	-7	1.6	-4%	-16	-0.2	-1.7
CCN(Cc1ccccc1)C(c1ccc(C)cc1)c1nnnn1C(C)(C)CC (centres undefined)
  -3	-4	2.8	-9%	14	-3.1	4.6
CCCCN1CCNC[C@@H]1Cc1ccccc1
  0	-4	-6.3	.	-2	1.8	-0.8
CCCc1cc(N2CCCC(C(=O)NCC)C2)n2ncnc2n1 (centres undefined)
  -7	-7	2.9	0%	-6	-1.1	-3.3
COCC(C)N=C1NN=C(c2cccs2)C(CC(=O)O)S1 (centres undefined)
  .	5	1.6	7%	7	3.7	5.7
COc1ccccc1OCCNC(=O)c1cccs1
  -18	-12	-1.9	25%	-9	-1.1	0.6
COC(=O)C1=CN(Cc2ccc(OC)c(OC)c2)C=C(C(=O)OC)C1c1cccs1
  .	-16	.	-10%	9	1.2	-0.1
O=C(Nc1ccnn1C1CCN(C(=O)c2ccc(C(F)(F)F)cc2)CC1)C1CC1
  3	-4	1.6	1%	-9	-3.1	-0.2
Cn1c(=O)n(C)c2cc(/C=C(/C#N)C(=O)NCc3ccco3)ccc21
  .	54	-14	.	-1	-3.4	0.4
CCOc1ccc(CCNC(=O)COC(=O)CNC(=O)c2ccc(Br)o2)cc1OCC
  -1	0	5.6	6%	-5	0.6	-5.0
COC(=O)c1ccc(OC(=O)C2CSC3(C)CCC(=O)N23)cc1 (centres undefined)
  -4	-5	1.1	-1%	-2	4.7	-0.7
Cn1c(=O)n(-c2ccc(Cl)cc2)c(=O)c2c3c(sc21)COC(C)(C)C3
  -10	16	4.7	-2%	-5	2.4	-0.2

Further results follow:
Each structure is followed by: ALR H2O2 inh	Calb FLC	LANA-H2B inh	Vif A3G	B2AR ag	HNF4A DNA FP	RanGTP-Impb inh
COCCCn1c(C(=O)NCCC2=CCCCC2)cc2c(=O)n3cccc(C)c3nc21
  -7	-4	0.5	-20%	6	-2.3	-2.1
CCCCn1c(N)c(N(CC(C)C)C(=O)c2cccs2)c(=O)[nH]c1=O
  -2	1	3.1	-1%	-3	1.6	1.2
COc1cc2oc3ccccc3c(=O)c2cc1OC
  -7	9	-0.2	.	1	2.4	-3.3
CC(C)c1ccc(NC(=O)CCNS(=O)(=O)c2cccc3nsnc23)cc1
  -3	-5	1.0	28%	-14	-3.5	-1.7
COc1ccc(-n2cc(CNCCc3ncc(C)[nH]3)c(-c3ccccc3Cl)n2)cc1
  4	11	-3.3	3%	-4	3.3	-1.1
COc1ccc([C@H]2/C=C\CN(C(=O)CC(C)(C)C)[C@@H](C)C(=O)N2Cc2ccc(F)cc2)cc1
  0	-4	0.2	.	-8	4.0	-1.9
O=C(c1ccco1)N1CCN(C(c2ccccc2F)c2nnnn2CC2CCCO2)CC1 (centres undefined)
  1	10	-0.9	3%&7%	-4	-2.0	.
Cc1cc(C)cc(N(C(C)C(=O)NC2CCCC2)S(C)(=O)=O)c1 (centres undefined)
  -2	6	1.9	5%	-3	1.6	6.1
CCC(CC)c1nnc(NC(=O)COc2ccc3c(c2)OCO3)s1
  -65	-16	2.4	.	-5	1.5	-0.2
O=C(Nn1c(SCc2ccc(F)cc2)nc2ccsc2c1=O)c1ccccc1
  -6	-46	-12	.	1	-0.1	0.9
CN1CCN(c2nnc(-c3ccc(F)cc3)c3ccccc23)CC1
  -1	-4	2.7	.	-24	1.8	-3.8
O=C(NCCc1cccc(Cl)c1)c1ccc(Cl)c([N+](=O)[O-])c1
  .	19	.	11%	-9	-2.3	1.0
Cc1ccc(C)c(Cn2nnc3c(=O)[nH]c(C(=O)NCc4ccco4)nc32)c1
  74	0	4.0	7%	-1	-13	?
Cc1nc([N+](=O)[O-])c(N2CCN(Cc3ccccc3)CC2)n1Cc1ccccc1
  -3	-3	-2.4	0%	5	1.6	1.9
O=C(O)CCc1ccc(-c2cccs2)n1Cc1ccco1
  99*	12	0.7	?	14	-5.2	-1.7
Cc1cc(=O)n2nc(N3CCCC(C(=O)NCCC4=CCCCC4)C3)sc2n1 (centres undefined)
  -3	-1	-6.2	6%	-5	-0.4	-2.3
CCCCn1c(SCC(=O)Nc2sc3c(c2C(N)=O)CCC3)nnc1-c1ccccc1
  64	4	4.5	5%	-6	-2.7	-0.3
COCCCN(C(=O)CCOc1ccc(C)cc1)c1c(N)n(Cc2ccccc2)c(=O)[nH]c1=O
  3	6	-2.9	.	-8	2.8	1.1
CC(C)(C)n1nc(-c2ccc(F)cc2)c2c(N)ncnc21
  -11	64	0.6	4%	-8	-0.7	?
